Menin-MLL FL inh – qHTS Assay for Inhibitors Targeting the Menin-MLL Interaction in MLL Related Leukemias: Competition With Fluorescein Labeled MLL-derived Peptide | FP activity change, % at 61.4 µM | Fluorescence polarization, fluorescein-MLL peptide displacement from menin | 290,000 tested, under 10 active | AID 1766, 2009; inconclusive = falling polarisation curve, or a change in total fluorescence; inactive = total fluorescence flat and polarisation flat or rising; no compound was filed as active; the % refers to the polarisation; negative = inhibition;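 note: % of control where 0% means no effect; inhibitors lower the polarisation; unlabelled MLL peptide was the positive control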
TRPML1 agonist – qHTS for Agonists of the Human Mucolipin Transient Receptor Potential 1 (TRPML1); AID 624414, 2012; 0.12% of 410,000 active; activation, % (test concentration not listed); TRPML1-expressing cells, Ca2+ dye fluorescence, FDSS; host cell line not named in the record; reference of the full effect not given here; Mucolipin-1 (Homo sapiens), Q9GZU1; in the data active = activation above about 50%; inconclusive = about 30% to 50%; inactive = below about 30%; note: 0% is about no effect; the text of the record puts the active cut at 80%
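Calcium fluorescence on an FDSS kinetic reader gave the read-out. Tet-induced TRPML1-DL cells were plated overnight, dye-loaded (Ca8 with quencher, 45-90 min, room temperature, dark), then read 110 s after compound addition, and again 110 s after 4uM final 54-4 (EC80).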
TRPML1 blocker – qHTS for Inhibitors of the Human Mucolipin Transient Receptor Potential 1 (TRPML1); TRPML1-inducible cells, Ca2+ dye fluorescence, FDSS; hits give low values; inhibition of EC80 agonist-evoked calcium signal; activity change, negative = inhibition, % (no concentration beside the values); 0.02% of 390,000 active; AID 624415, 2012; in the data active means activity change below about -50%; inconclusive means about -30% to -50%; inactive means above about -30%;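 note: stimulus is agonist 54-4 at its EC80 concentration; % is set by controls: 0 for no effect and ±100 for the full control effect; compound concentration not given in the record; the text of the record puts the active cut at -80%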
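Tet-induced TRPML1-DL cells loaded with Ca8 no-wash calcium dye were read kinetically on FDSS. Compound addition was followed by EC80 agonist 54-4 (4 uM final); inhibition was read over 110 s.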
Sfp inh – qHTS Assay for Inhibitors of Bacillus subtilis Sfp phosphopantetheinyl transferase (PPTase); Biochemical Sfp PPTase activity, qHTS; Potency, µM, without a hit: max response, negative = inhibition, most hits filed as inhibitors; 3.5% of 310,000 active; AID 1490, 2009; active = well fitted inhibition curve with a large enough effect; inconclusive = small, poorly fitted or top-dose-only effect, or another doubt; inactive = no such curve, though single readings can be large or run the other way;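 note: the enzyme is Sfp with the accession as filed and its product quenches rhodamine fluorescence; potency is the fitted concentration of half-maximal effect; 0% = enzyme reaction without inhibitor and -100% = no enzyme wells; top concentration of the series not given in the record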
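After 15 min at room temperature with compound, 15 nM Sfp received 5 uM rhodamine-CoA plus 12.5 uM BHQ-2-ybbR (50 mM Hepes pH 7.6, 10 mM MgCl2). Rate came from the fluorescence difference over 30 min, ex 525/em 598 nm.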
ClpP mod – qHTS Assay for Activators of ClpP. ATP-dependent Clp protease proteolytic subunit (Bacillus subtilis (strain 168)), P80244. purified B. subtilis ClpP, FRET peptide cleavage, 20 min. Potency, µM (top dose mostly 57.5 µM), without a hit: at the highest dose activity change, negative = active. 1.9% of 340,000 active; active = well fitted falling curve with a large enough effect; inconclusive = small, poorly fitted or top-dose-only effect; inactive = no such curve, though single readings can be large or run the other way; note: potency is the fitted concentration of half-maximal effect; the source files actives as falling curves though it sought activators and does not explain the sign; nearly all actives have a fitted effect of over 65% in size; many hits overshoot -100%
Target sequence (P80244 whole entry, looked up): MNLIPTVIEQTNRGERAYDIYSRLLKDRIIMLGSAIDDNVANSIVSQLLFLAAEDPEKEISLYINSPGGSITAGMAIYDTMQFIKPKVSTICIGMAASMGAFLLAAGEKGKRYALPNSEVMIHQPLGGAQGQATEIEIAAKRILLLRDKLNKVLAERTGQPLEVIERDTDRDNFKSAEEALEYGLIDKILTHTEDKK
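Purified B. subtilis ClpP, 10 microg/mL final in Tris/HCl pH8 with KCl, BSA, glycerol and Tween-20, cleaved an Abz/nitrotyrosine-quenched decapeptide. Fluorescence (ex 320, em 430) was read at 0 and 20 min at room temperature. Delta was normalized to 5.8 microM ADEP and DMSO/no-enzyme controls.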
PINK1 modulator – A Quantitative High throughput Screen to Identify Chemical Modulators of PINK1 Expression; PINK1 immunofluorescence, high-content cytometry, 24 h; AID 624263, 2012; Potency, µM (titrated, usually from 76.6 µM), without a hit: at the top dose activation (PINK1 increase), usual class: activators; 0.2% of 410,000 active; active = well fitted activation curve with a large enough effect; inconclusive = small, poorly fitted or top-dose-only effect; inactive = flat fitted curve, though single readings scatter; cell line not stated here;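 note: potency is the fitted concentration of half-maximal effect; % of control where 0% means no effect; nearly all actives have a fitted effect of over 65% in size; a mitochondrial uncoupler was the plate control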
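Compound titrations (5 concentrations, 24 h) on a stable cell line; DMSO and CCCP controls. Endpoint: fixed-cell PINK1 immunofluorescence with mitochondrial, cell and nuclear markers, scanned by microplate cytometer.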
TRPV1 PAM – HTS Assay for Compounds that Act as Potentiators of the Vanilloid Receptor 1; Transient receptor potential cation channel subfamily V member 1 (Homo sapiens), Q8NER1; TRPV1-expressing cells, Fluo-8 calcium influx, capsaicin EC20 potentiation; host cell line not named in the record; control for the full effect not named in the record; potentiation, % at 8.33 µM; 0.02% of 320,000 active; AID 540277, 2011; active means potentiation above 80%; inconclusive means 30% to 80%; inactive means below 30%; note: 0% is about no effect
Target sequence (Q8NER1 whole entry, looked up): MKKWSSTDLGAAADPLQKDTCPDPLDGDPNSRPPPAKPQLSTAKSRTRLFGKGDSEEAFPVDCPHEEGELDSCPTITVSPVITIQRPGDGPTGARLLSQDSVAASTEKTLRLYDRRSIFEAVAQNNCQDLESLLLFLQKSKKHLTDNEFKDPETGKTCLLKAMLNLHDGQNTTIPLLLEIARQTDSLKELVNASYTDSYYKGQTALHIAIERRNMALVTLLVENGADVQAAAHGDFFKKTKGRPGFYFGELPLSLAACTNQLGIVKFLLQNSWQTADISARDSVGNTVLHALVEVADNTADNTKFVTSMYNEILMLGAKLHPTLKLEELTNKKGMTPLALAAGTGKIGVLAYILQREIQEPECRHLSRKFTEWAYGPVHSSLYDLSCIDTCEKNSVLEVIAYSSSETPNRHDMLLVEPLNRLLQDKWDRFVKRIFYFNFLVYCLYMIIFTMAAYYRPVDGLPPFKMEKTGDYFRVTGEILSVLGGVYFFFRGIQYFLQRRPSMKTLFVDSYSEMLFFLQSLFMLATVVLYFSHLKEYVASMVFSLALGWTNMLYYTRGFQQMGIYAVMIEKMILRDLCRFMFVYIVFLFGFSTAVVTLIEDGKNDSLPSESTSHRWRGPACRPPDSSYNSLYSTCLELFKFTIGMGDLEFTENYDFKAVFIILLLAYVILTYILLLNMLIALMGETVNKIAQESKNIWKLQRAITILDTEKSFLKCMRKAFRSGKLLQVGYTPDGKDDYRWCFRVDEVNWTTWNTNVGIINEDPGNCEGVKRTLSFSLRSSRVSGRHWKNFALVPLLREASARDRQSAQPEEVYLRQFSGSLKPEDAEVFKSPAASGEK
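Cells expressing TRPV1 were dye-loaded with Fluo-8 and read kinetically: 10 s baseline, 3 min after compound (agonist portion), then 2 min after EC20 capsaicin (allosteric enhancer portion). Calcium-bound dye fluorescence at 480/520 nm.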
* hit, by the source's call; ? = inconclusive; nt = not tested or not shown; [ ] = another dose, or the depositor's remark.

SMILES	Menin-MLL FL inh	TRPML1 agonist	TRPML1 blocker	Sfp inh	ClpP mod	PINK1 modulator	TRPV1 PAM
c1ccc2c(c1)CCc1c(-c3ccncc3)n[nH]c1-2	nt	-0.4	-7	nt	1.5%	-0.8%	-4
CCOC(=O)N1CCN(C(=O)CN(c2ccc(OC)cc2)S(C)(=O)=O)CC1	-1.5	-0.8	-5	17%	-1.2%	-1.8%	15
CCNc1ncc2nc(C)c(=O)n(C[C@H]3CCCO3)c2n1	0.3	nt	nt	21%	nt	-0.3%	nt
COc1ccc(CCNC(=S)N2CCC(C(N)=O)CC2)cc1	-2.1	-0.1	-15	56µM*	nt	-0.9%	6
O=C(CSc1nc(O)cc(=O)[nH]1)N1CCOCC1	?	0.2	13	7%	nt	-0.6%	7
O=C(Cn1ccc([N+](=O)[O-])n1)Nc1nccs1	2.2	0.1	-4	-6%	2.6%	0.2%	13
CCS(=O)c1ccccc1C(=O)OC(C)C(=O)Nc1ccc(S(=O)(=O)N2CCCC2)cc1 (centres undefined)	nt	0.5	-1	nt	1.0%	2.9%	-13
OCCN(CC#CCC(O)(c1ccccc1)C1CCCC1)CCO (centres undefined)	2.9	0.3	5	-15%	-3.3%	-2.9%	?
CSc1nnc([C@@H](NC(=O)OC(C)(C)C)C(C)C)o1	0.8	-0.7	1	11%	-0.4%	-0.1%	-3
Cn1c(CNC(=O)c2ccccc2F)nnc1SCC(=O)c1ccccc1	nt	0.1	6	13%	-2.1%	-2.4%	9
CCOC(=O)C1C(=O)CC(C)(O)C(C(=O)OCC)C1c1ccc(F)cc1 (centres undefined)	-0.9	0.0	-8	16%	3.3%	?	-2
Cc1cc2c(nc1C)CCCN2C[C@@H](C)O/N=C1/[C@H]2CCn3c(=O)n(-c4ccccc4)c(=O)n3[C@H]2[C@H](O)[C@@H]2O[C@H]12	-4.5	-0.7	-3	18%	4.1%	0.9%	6
CC(=O)NCC12CC3CC(C1)CC(C(=O)O)(C3)C2	-0.2	0.2	-4	12%	-0.3%	3.8%[38.3 µM]	12
Cn1c(=O)c2c(nc(NCc3ccco3)n2C/C=C/c2ccccc2)n(C)c1=O	1.3	-0.2	11	-10%	-5.5%	-1.5%	0
Cc1ccc(Cl)cc1NC(=O)C1CCCN1S(=O)(=O)c1ccc(-c2ccc(=O)[nH]n2)s1 (centres undefined)	2.4	7.9	16	-15%	nt	-1.2%	-2
CC(=O)N1CCc2c(sc(NC(=O)CCS(=O)(=O)c3ccc(C)cc3)c2C#N)C1	nt	2.1	-8	nt	-1.2%	1.6%	-20
COc1cc(OC)c2c(C)cc(=O)oc2c1C(CCN1CCCCC1)c1ccc(N(C)C)cc1 (centres undefined)	1.3	0.5	-7	-9%	nt	nt	nt
Cc1c(Cl)cccc1NC(=S)/C(=C(\[O-])c1ccc(Cl)s1)[n+]1ccccc1	2.1	1.5	-8	-11%	-3.9%	-0.3%	20
O=C(NC(=S)N1CCCCCC1)c1cccc([N+](=O)[O-])c1	nt	-0.2	-3	nt	1.0%	0.0%	13
Cc1ccc([C@H]2N[C@]3(CCCN(Cc4ccc(F)cc4)C3=O)[C@H]3C(=O)N(Cc4ccccc4)C(=O)[C@@H]23)cc1	nt	0.1	-6	nt	-0.1%	1.2%	nt
Cc1nc(SCC(=O)Nc2ccc3c(c2)OCO3)c(C#N)c2c1CCCC2	-2.7	-0.6	6	-12%	?	8.7%	11
Cn1c(SCC(=O)Nc2nccs2)nnc1-c1ccc(S(=O)(=O)N2CCCC2)cc1	0.7	1.1	-8	19%	-2.6%	1.8%[38.3 µM]	11
O=C1C=C(c2ccc3c(c2)oc2ccccc23)C[C@@H](c2ccc3c(c2)OCO3)C1	nt	0.9	28	nt	1.7%	5.2%	5
CCCc1nn(C)c(C(=O)Nc2cccc3ccccc23)c1Cl	7.4	3.9	24	11%	0.6%	0.0%	2
O=C(COc1ncnc2c(Cl)cc(Cl)cc12)NCCC1=CCCCC1	1.1	-1.0	24	-2%	3.6%	1.8%	0

Additional compounds:
SMILES	Menin-MLL FL inh	TRPML1 agonist	TRPML1 blocker	Sfp inh	ClpP mod	PINK1 modulator	TRPV1 PAM
O=C(CSc1nnc(-c2ccccc2)c(-c2ccccc2)n1)Nc1ccc(Br)cn1	3.0	3.3	-8	-14%	-28%	3.7%	9
Cc1ccc(C)c(N2CCN(C(=O)c3cccn4c(=O)c5ccccc5nc34)CC2)c1	nt	-0.1	-9	nt	-5.8%	0.8%	nt
COc1cccc(/C=C2\SC(=S)N(CCC(=O)N3CCCCC3)C2=O)c1	0.4	-0.4	0	-1%	0.3%	-0.8%	-15
O=C(OCc1nnc(-c2ccccc2)o1)c1ccc2c(c1)OCCO2	1.8	-0.7	-2	?	0.7%	0.4%	25
Cc1ccc(CN2C(=O)CN(C3CCC(C)CC3)C(=O)C2c2ccc(F)cc2)cc1 (centres undefined)	nt	2.0	6	nt	-0.9%	1.1%	nt
CC1(C)Cc2c(sc3[nH]c(=S)[nH]c(=O)c23)CO1	1.8	0.7	23	?	nt	3.1%	8
COc1ccc(C(=O)CC(=O)C(=O)Nc2cc(OC)c(OC)c(OC)c2)cc1	-4.4	1.7	26	4%	-1.0%	1.0%	26
CCOC(=O)C1(CC2CC2)CCN(C(=O)c2ocnc2C)CC1	-0.3	0.2	20	-1%	0.2%	-0.5%	-4
CC1(C)C(=O)Nc2ccccc2N1C(=O)COC(=O)c1cc(S(C)(=O)=O)ccc1Cl	nt	0.5	-20	nt	1.8%	-0.9%	1
Cc1ccc(S(=O)(=O)N(CCC(=O)NCc2ccc(S(N)(=O)=O)cc2)c2ccccc2)cc1	nt	-0.3	-9	nt	-10%	-1.2%	18
O=C(NCc1cn2ccsc2n1)Nc1ccc(Cl)cc1	-1.1	-0.5	16	-9%	-0.4%	1.1%[38.3 µM]	-14
CCC(=NNc1ccc([N+](=O)[O-])cc1[N+](=O)[O-])c1ccccc1	nt	4.0	nt	nt	0.8%	3.0%	nt
N/C(CS(=O)(=O)c1ccccc1)=N\OC(=O)c1ccc(F)cc1	nt	0.6	45	8%	1.1%	2.4%	-4
NS(=O)(=O)c1ccc(CNC(=O)Cc2cccs2)cc1	17	-0.2	-18	1%	nt	1.7%	6
COc1cccc(C(=O)N2CCN(Cc3cc(Br)ccc3OC)CC2)c1	0.3	-0.2	1	-28%	0.0%	-0.1%	-9
COc1ccc2nc(SC(C)C(=O)NC3CCCCC3)[nH]c2c1 (centres undefined)	nt	-0.8	-4	nt	nt	2.1%	-5
Cc1ccc(CN(C)C(=O)CCc2nc3sc4c(c3c(=O)[nH]2)CCCC4)o1	18	0.2	-10	50µM*	-11%	2.5%	0
COc1ccccc1CNC(=O)CCn1c(=O)c2cccn2c2cccnc21	nt	1.5	-22	nt	?	-1.8%	nt
Cc1cc(NC(=O)CSc2nccn2-c2cccc(C)c2C)no1	-4.9	3.0	-12	17%	nt	2.9%	-11
CCN(CC)S(=O)(=O)c1ccc(C)c(NC(=O)CN2C(=O)NC3(CCCC3)C2=O)c1	nt	0.8	-1	3%	nt	1.5%	6
COc1ccc(CNC(=O)C2CCN(S(C)(=O)=O)CC2)c(OC)c1	0.5	1.4	-2	14%	-1.6%	-0.5%	2
CCOc1ccc(N/C(=C(/C(Cl)=C(Cl)Cl)[N+](=O)[O-])n2cncn2)cc1	?	nt	nt	-29%	nt	nt	12
CCOc1ccc(-c2[nH]ncc2Oc2cccc(OC)c2)c(O)c1	4.2	-0.4	0	15%	-3.1%	8.1%	18
CC1(C)CC(=O)C=C(c2ccc3c(c2)OCO3)C1	nt	-0.7	-1	nt	-4.3%	0.1%	nt
O=S(=O)(c1cc(Cl)ccc1Cl)n1nnc2ccccc21	2.1	0.2	19	9%	-0.2%	-3.0%[38.3 µM]	-10

Next part
SMILES	Menin-MLL FL inh	TRPML1 agonist	TRPML1 blocker	Sfp inh	ClpP mod	PINK1 modulator	TRPV1 PAM
CCN=C1SC(CC(=O)NCc2ccccc2)C(=O)N1CC (centres undefined)	0.6	-0.4	-8	9%	-0.8%	1.3%	3
COC(=O)c1ccc(S(=O)(=O)N2CCCC2)o1	-1.8	1.1	-9	17%	-5.7%	-0.3%	9
COc1ccc([C@H]2CC(=O)C=C(c3cc(C=O)ccc3OC)C2)cc1	nt	1.8	-9	nt	-4.6%	6.2%	-4
CC(C)NC(=O)CSCc1c(F)cccc1Cl	-1.1	-0.4	3	19%	-2.3%	-1.8%[38.3 µM]	-13
Cc1c(NS(=O)(=O)c2ccc(C(=O)N(C)Cc3cccc(Cl)c3Cl)cc2)c(=O)n(-c2ccccc2)n1C	nt	1.8	-6	nt	0.4%	0.0%	nt
COc1nc(-c2ccccc2)nc(-c2ccccc2)c1C	nt	4.3	4	nt	nt	?	nt
CSCCC(NS(=O)(=O)c1ccccc1F)C(=O)NCC(c1ccc(F)cc1)N1CCOCC1 (centres undefined)	nt	-0.4	-9	nt	-7.2%	-1.6%	-4
O=C(Cn1cc2c(n1)CCCC2)N1CCCC1	-0.1	0.2	10	21%	0.5%	0.8%	21
CCOc1ccc(N(C(C)C(=O)N/N=C(\C)c2cccc(NC(=O)c3ccccc3)c2)S(C)(=O)=O)cc1 (centres undefined)	1.8	0.6	6	18%	-1.8%	3.7%	-3
O=C1COc2ccc(C(=O)COC(=O)Cc3ccc(F)cc3)cc2N1	nt	0.6	0	nt	nt	-1.0%	20
Cc1ccc(OCC(=O)Nc2ccc3c(c2)OCO3)cc1C	0.5	1.7	-11	-9%	0.6%	2.5%	-13
COc1ccc(NC(=O)Cn2nnc3sc4c(c3c2=O)CCCC4)cc1	nt	-0.9	-8	nt	-6.4%	0.4%	nt
COCC(C)NC(=S)NCCc1ccc(Cl)cc1Cl (centres undefined)	6.7	1.0	27	20%	0.1%	7.1%	4

Assay outcomes deposited in PubChem by National Center for Advancing Translational Sciences (NCATS).
